Bioassay records: PubChem BioAssay, SRMLSC
H5N1 CPE: antiviral screen in MDCK cells, H5N1 avian flu | cytopathic effect, luminescence, 72 h; hits give high values; no value below 0 was filed and about half of the inactive calls have no number; reference of the scale not given here | inhibition, % at 50 µM | hit rate 0.07% among 96,000; in the data active means inhibition above about 25%
Active calls of the source: *; i = inactive. These rows are one share of the data (hit frequency here may not be typical).

The first 6 entries, to show the layout:
SMILES	H5N1 CPE
COc1cccc(C2NC(=O)NC(C)=C2C(=O)Nc2ccc(C)cc2)c1OC (configuration not stated)	i
CC(=O)N1CCc2cc(S(=O)(=O)NC(Cc3ccccc3)C(=O)NC3CCCCCC3)ccc21 (configuration not stated)	0.5
CCCN(CCC)CCCOC(=O)c1ccc(Cl)cc1Cl	i
COc1ccc(NC(=O)CSc2n[nH]c(N)n2)c([N+](=O)[O-])c1	0.1
CCC(=O)N1CCc2cc(S(=O)(=O)NCCC(=O)N3CC=C(c4ccccc4)CC3)ccc21	1.2
O=c1cc(CO)oc(CN2CCN(c3ccccc3F)CC2)c1O	1.0

The whole of this part (from the top)
SMILES	H5N1 CPE
COc1cccc(C2NC(=O)NC(C)=C2C(=O)Nc2ccc(C)cc2)c1OC (configuration not stated)	i
CC(=O)N1CCc2cc(S(=O)(=O)NC(Cc3ccccc3)C(=O)NC3CCCCCC3)ccc21 (configuration not stated)	0.5
CCCN(CCC)CCCOC(=O)c1ccc(Cl)cc1Cl	i
COc1ccc(NC(=O)CSc2n[nH]c(N)n2)c([N+](=O)[O-])c1	0.1
CCC(=O)N1CCc2cc(S(=O)(=O)NCCC(=O)N3CC=C(c4ccccc4)CC3)ccc21	1.2
O=c1cc(CO)oc(CN2CCN(c3ccccc3F)CC2)c1O	1.0
COc1ccc(CCNC(=O)CN(c2ccccc2OC)S(C)(=O)=O)cc1	0.4
COc1cccc(Cn2cccc(NC(=O)NC3CCCCC3)c2=O)c1	i
Cc1cc(O)c(C2(C(F)(F)F)NCCNC2=O)cc1C (configuration not stated)	i
COc1cc(C(=S)N2CCCC2)ccc1OC(=O)c1ccc(Cl)cc1[N+](=O)[O-]	0.6
Cc1cccc(NC(=S)NNC(=O)c2csc3c2CCC(C)C3)c1 (configuration not stated)	0.3
CCOc1ccc(CN(C)CC(=O)c2c(N)n(Cc3ccccc3)c(=O)n(CC)c2=O)cc1OC	0.3
O=C(COC(=O)CCC(=O)c1cccs1)Nc1cc(S(=O)(=O)N2CCOCC2)ccc1Cl	i
COCCCN1CN(S(=O)(=O)c2ccc(Cl)cc2)c2nc3ccccc3nc21	0.3
C=CCN(C(=O)Cn1nnc2ccccc21)C(C(=O)NCCOC)c1ccc(OC)cc1OC (configuration not stated)	0.2
CCC(C)N1C(=O)NC(=O)C2(Cc3c(ccc4ccccc34)N(C)C2)C1=O (configuration not stated)	1.7
CCCCn1c(SCC(=O)O)nc2ccccc21	i
CCOC(=O)C1CCN(C(=O)COc2ccc(S(=O)(=O)NC(C)C)cc2Cl)CC1	0.1
CCOC(=O)C1=C(c2ccccc2)N=C2SCC(=O)N2C1c1ccc(O)c(OC)c1 (configuration not stated)	i
CC1CC(C)CN(CCCNC(=O)c2ccc(CS(=O)(=O)Cc3ccccc3F)o2)C1 (configuration not stated)	i
Cc1nn(-c2ccccc2)c(C)c1/C=N\N1CCN(c2ccc(Cl)cc2)CC1	0.2
Cc1ccc2nc(C)cc(Nc3ccc4c(c3)OCCO4)c2c1	i
COc1ccc(CCN(Cc2nc3ccccc3c(=O)[nH]2)C(=O)c2ccco2)cc1	0.2
CN(CC(=O)N1CC=C(c2ccccc2)CC1)S(=O)(=O)c1ccc2c(c1)c(=O)n(C)c(=O)n2C	1.6
O=C1c2ccccc2C(O)N1Cc1ccccc1 (configuration not stated)	0.1
SMILES	H5N1 CPE
CCOC(=O)C(NCc1ccco1)(NC(=O)c1ccccc1)C(F)(F)F (configuration not stated)	i
CCOc1ccc(-c2cc(CCCC(=O)NCCCOC)no2)cc1	i
Cc1ccccc1NCN1C(=O)C2C3C=CC(C3)C2C1=O (configuration not stated)	1.7
COC(=O)c1cc(NC(=O)CCc2c(C)nc3ncnn3c2C)cc(C(=O)OC)c1	0.1
Cc1nc(N)sc1C(=O)N/N=C/c1c[nH]c2ccccc12	3.7
CCOC(=O)c1ccccc1NC(=O)c1cc(S(=O)(=O)N2CCOCC2)ccc1F	1.0
CC(=O)c1c(C)n(-c2ccccc2)c2ccc(OCC(O)CN3CCOCC3)cc12 (configuration not stated)	0.2
O=C(Nc1ccccc1Cl)C1CCCN(S(=O)(=O)c2ccc(F)cc2)C1 (configuration not stated)	1.1
O=C(Nc1ccc2c(c1)OCCO2)C1CCCN(S(=O)(=O)c2cccc3nsnc23)C1 (configuration not stated)	0.2
Cc1cc(C(F)(F)F)nc(Nc2nc(C)c3ccccc3n2)n1	0.3
CC(C)CC(NC(=O)C(CC(C)C)NC(=O)OC(C)(C)C)C(=O)O (configuration not stated)	i
CC1Cc2ccccc2N1S(=O)(=O)c1cnc[nH]1 (configuration not stated)	i
O=C(c1cc(-c2ccc(Cl)cc2Cl)on1)N1CCOCC1	i
CS(=O)(=O)N(CCc1ccccc1)CC(=O)N1CCCCC1	i
Cc1nc2sc(C(c3cccc(F)c3)N3CCCCC3)c(O)n2n1 (configuration not stated)	0.6
O=C(NCc1ccc(N2CCCC2=O)cc1)Nc1cccc(Cl)c1	i
COc1ccc(Cl)cc1NC(=O)C12CCC(C)(C(=O)O1)C2(C)C (configuration not stated)	1.8
O=C(NCCC1=CCCCC1)C1CCN(S(=O)(=O)c2cccc3nonc23)CC1	0.2
CCCCC(=O)Nc1nc2ccc3nc(C)sc3c2s1	i
CC1=C(C(=O)OCc2ccc3c(c2)OCO3)C(c2ccc(F)cc2)NC(=O)N1 (configuration not stated)	2.3
CCC(c1nnc(SCC(=O)Nc2nnc(-c3ccccc3)o2)n1Cc1ccccc1)N(C)C (configuration not stated)	i
Cc1ccc(NC(=O)c2ccc(Cl)c(N3C(=O)C=CC3=O)c2)cc1	i
CC(=O)c1cccc(NC(=O)c2c(F)c(F)c(F)c(F)c2F)c1	i
CCS(=O)(=O)N1CCN(c2ccccc2F)CC1	i
O=C(N1CCOCC1)N1CCCN(C(=O)N2CCOCC2)CC1	3.7
SMILES	H5N1 CPE
O=C(O)CCCC(=O)N1CC(=O)Nc2ccccc21	i
COc1ccc(-n2c(CNc3ccc(C)cc3)nnc2SCC(=O)Nc2nc(-c3ccccc3)cs2)cc1	i
CCOC(=O)C(CCCOc1ccc(C(C)CC)cc1)C(=O)OCC (configuration not stated)	i
Cc1cc(Oc2ccc(Cl)cc2)nc(-c2ccccc2O)n1	i
Cc1cccc(NC(=O)Nc2cccc(Oc3c(F)c(F)c(F)c(F)c3F)c2)c1	0.4
CCCCCNC1=CC(=O)CC(c2ccccc2)C1 (configuration not stated)	0.4
Cc1cc(=O)n2cc(-c3ccccc3)nc2[nH]1	1.5
COc1ccc(-n2ncc3c(NCc4ccc5c(c4)OCO5)ncnc32)cc1	i
O=C(O)c1sccc1Oc1ccc(F)cc1[N+](=O)[O-]	i
CNC(=O)c1cc2c(s1)CCCCCC2	0.6
CCCc1nnc(NC(=O)CN2C(=O)C3C4C=CC(C4)C3C2=O)s1 (configuration not stated)	0.5
C=CCn1c(=O)c2c(nc(Br)n2Cc2ccccc2Cl)n(C)c1=O	2.6
Cc1ccc(C(=O)NC(=S)Nc2ccc(S(=O)(=O)N3CCN(C)CC3)cc2)cc1	i
O=C1NC(=S)NC(=O)C12C(c1ccc(F)cc1)NC(=S)NC2c1ccc(F)cc1 (configuration not stated)	i
O=C1CN(c2ccc(Br)cc2)C(=O)N1CC(=O)N1CCCc2ccccc21	2.0
CC1Cc2cc(/C(O)=C3/C(=O)C(=O)N(CCN4CCOCC4)C3c3cccc(Cl)c3)ccc2O1 (configuration not stated)	0.3
CCCC1Cc2nc(N3CCCCC3)c(C#N)cc2CO1 (configuration not stated)	i
Cc1nc(SCc2cccc(Oc3ccccc3)c2)n[nH]1	i
Cc1cccc(NCc2nc3ccccc3n2C)c1	0.5
CCOC(=O)c1cnn(-c2ncnc3sc4c(c23)CCC4)c1N	i
O=C(Cn1cnc2cc([N+](=O)[O-])ccc2c1=O)Nc1ccc2c(c1)CCC2	i
CCN(CC)CCn1c(O)c(N=O)c2ccccc21	1.2
O=C(NCC(c1cccnc1)N1CCN(c2ccc(F)cc2)CC1)OCc1ccccc1 (configuration not stated)	i
CCOc1nc(C)nc(NC(=O)NS(=O)(=O)c2ccccc2Cl)n1	0.2
O=C(NC1CCCC1)c1csc2c1CCCC2	0.2
SMILES	H5N1 CPE
COc1ccccc1-c1nnc(SCC(=O)Nc2ccccc2)o1	i
N#CCc1nn(-c2ccccc2)c(N)c1C#N	0.5
C=CCNC(=O)c1onc(CSc2ccccc2CC)c1C(=O)O	i
Cc1noc(C)c1S(=O)(=O)N1CCN(C(c2ccccc2)c2ccc(Cl)cc2)CC1 (configuration not stated)	1.4
Cc1noc(NS(=O)(=O)c2ccc(NC(=O)CSc3nc4ccccc4[nH]3)cc2)c1C	0.8
Cn1ccnc1-c1nc2ccccc2[nH]c1=O	i
O=C(COC(=O)CSCC(=O)N1CCCCC1)NCc1ccc(F)cc1	i
Cc1ccc(S(=O)(=O)N(CC(=O)N2CCN(c3ccc(F)cc3)CC2)C2CCCCC2)cc1	i
Cc1cc(C)nc(SCNC(=O)c2ccc(Cl)cc2)n1	0.1
CCCCCNC(=O)c1ccc2c(=O)n(CC3CCCO3)c(=O)[nH]c2c1 (configuration not stated)	0.1
COc1ccc(NC(=O)c2ccc(C(=O)c3cc(OC)ccc3OC)cc2)cc1	0.6
COc1ccc(N2CCN(C3CC(=O)N(c4ccc5c(c4)OCCO5)C3=O)CC2)cc1 (configuration not stated)	i
Fc1ccc(CSc2nnc(-c3cnccn3)n2Cc2ccco2)cc1	i
CCc1ccc(C2=NN(c3ccc(S(N)(=O)=O)cc3)C(c3ccc(F)cc3)C2)cc1 (configuration not stated)	i
Cc1ccc(C(=O)NCc2ccc3c(c2)OCO3)cc1S(=O)(=O)N1CCCCC1	i
COc1ccc(S(=O)(=O)NC2CCCCC2)cc1C	i
COCCOC(=O)c1c(NC(=O)CN2CCOCC2)sc(C(N)=O)c1C	0.3
O=C(CC(C(=O)O)C1CCCO1)Nc1cccc(C(F)(F)F)c1 (configuration not stated)	3.3
O=C(Cn1cc([N+](=O)[O-])cn1)N1CCc2ccccc21	0.5
CCn1cnc2cc(NCc3cccc(OC)c3O)ccc21	i
COC(=O)c1ccc(Oc2ccc3nnc(C)n3n2)cc1	0.9
O=C1CN(C(=O)CSc2nncn2-c2ccccc2)c2ccccc2N1	1.0
CCC(C)NC(=O)C1(C)CCC(=O)N1CCc1ccc(OC)c(OC)c1 (configuration not stated)	0.6
Cc1cccc(C)c1OC(=O)CSc1nnc(-c2ccccc2O)o1	i
CCc1c(C)nc(N2CCN(Cc3ccccc3)CC2)[nH]c1=O	0.1

Given in markdown: 4 of the compounds above
| SMILES | H5N1 CPE |
| --- | --- |
| CCS(=O)(=O)N1CCN(c2ccccc2F)CC1 | i |
| O=C(O)c1sccc1Oc1ccc(F)cc1[N+](=O)[O-] | i |
| COc1ccc(-n2ncc3c(NCc4ccc5c(c4)OCO5)ncnc32)cc1 | i |
| Cc1cccc(NCc2nc3ccccc3n2C)c1 | 0.5 |

The listing continues:
SMILES	H5N1 CPE
Cc1ccc(S(=O)(=O)NCCCCCC(=O)Nc2ccccn2)cc1	i
COc1ccc(S(=O)(=O)NCCc2cn3cccc(C)c3n2)cc1OC	1.9
O=S(=O)(NC1CCCC1)c1ccc(S(=O)(=O)N2CCCN(Cc3ccccc3)C2)cc1	i
CCCOc1ccc(-c2nc(C#N)c(N3CCN(C)CC3)o2)cc1	0.0
CSc1nc(-c2ccco2)nn1C(=O)c1ccc(C)cc1	0.4
COc1cc(C)c(S(=O)(=O)Nc2ccccc2F)cc1C	0.2
Cc1ccc(CC(=O)N2CC(C)OC(C)C2)cc1 (configuration not stated)	0.5
CC(=O)C1C(c2ccc(C)cc2)c2c(n[nH]c2C)CC1(C)O (configuration not stated)	i
N#Cc1c(N)c(C(=O)c2ccccc2)n2c1CCCC2	1.9
C/C(=N\NC(=O)CNc1ccccc1Cl)C(C)(C)C	0.1
CN(C)c1ccc(C(C(=O)NC(C)(C)C)N(C(=O)c2csnn2)C2CC2)cc1 (configuration not stated)	1.9
O=C(CN1CCN(C(=O)c2ccccc2)CC1)Nc1ncc(Br)cc1Br	1.0
Cn1c(=O)[nH]c(=O)c2c1nc(SCCN1CCOCC1)n2CCCc1ccccc1	1.1
CCOC(=O)CSc1nc2ccccc2c(=O)n1C	3.7
CCc1ccc(C(=O)NC(C(=O)O)C(C)C)cc1 (configuration not stated)	0.8
CC(C)OC(=O)CN1C(=O)c2ccccc2C1=O	0.5
CCOc1ccc(C(=O)NCCN(C)C)cc1	i
O=C(NCCO)c1cc2ccccc2c(=O)s1	i
O=C(NCCc1ccccc1)C(=O)NN=C1CCCC1	0.9
CCOC(=O)c1cc(NC(=O)Nc2ccccc2OC)c(C)nc1C	i
O=C(CCn1cnc2ccccc2c1=O)Nc1nc2c(s1)CCCC2	0.3
FC(F)(F)c1cnc(Sc2nc3nccc(-c4ccc(Cl)cc4)n3n2)c(Cl)c1	i
O=C(NC(c1ccccc1)c1ccccc1)c1ccc(S(=O)(=O)C(F)F)cc1	0.7
CSc1ccc(Cn2nnc(C(=O)Nc3ccc(C)c(C)c3)c2N)cc1	i
O=C(O)c1ccc(COc2cccc(CO)c2)cc1	i
CCCOc1ccc(N2C(=O)C3C(C(C)C)NC4(C(=O)c5ccccc5C4=O)C3C2=O)cc1 (configuration not stated)	11.1
CCNC(=S)N1CC(C)OC(C)C1 (configuration not stated)	i
CCSc1nc(C)cc(C)c1S(=O)(=O)c1ccccc1C	1.1

Reformatted with bars between the fields: 5 of the compounds above
Structure | H5N1 CPE
COc1cc(C)c(S(=O)(=O)Nc2ccccc2F)cc1C | 0.2
Cc1ccc(CC(=O)N2CC(C)OC(C)C2)cc1 (configuration not stated) | 0.5
CC(=O)C1C(c2ccc(C)cc2)c2c(n[nH]c2C)CC1(C)O (configuration not stated) | i
N#Cc1c(N)c(C(=O)c2ccccc2)n2c1CCCC2 | 1.9
C/C(=N\NC(=O)CNc1ccccc1Cl)C(C)(C)C | 0.1
